Screening data as filed in PubChem BioAssay.
Rce1 inh: inhibitors of yeast Ras-converting enzyme. calls only. hit rate 0.27% among 290,000. yeast membranes, quenched prenylated peptide cleavage fluorescence;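 active = fall in fluorescence gain of 50% or more versus controls, with final raw signal at or below 3038400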;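 note: plate controls were neutral control wells for no effect and wells lacking membranes for full effect; tested at 10 µM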
MT1-MMP act inh: MT1-MMP (human) activation inhibition; AID 651647; HT1080 RFP-PRO-GFP cells, GFP/RFP ratio fluorescence, overnight; percent of plate control window, DMSO zero; hit rate 0.061% among 360,000; GFP/RFP ratio change, % at 20 µM;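 active = GFP/RFP ratio change of at least 30% with cell ATP level not reduced by more than half and red fluorescence within 50% of control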; note: strong numbers were not always called active
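Assay system: HT1080 RFP-PRO-GFP cells. Benchmarks: DMSO vehicle wells and RFP-L50D-GFP reporter cell wells. Times: overnight cell settling, then overnight compound exposure, 37 °C, 5% CO2. Compound: 20 µM single dose, 1% DMSO. Read-out basis: GFP/RFP fluorescence ratio.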
eIF4H FP inh: inhibitors of RNA binding by human eIF4H | eIF4H fluorescence polarization binding assay | inhibition, % at 35 µM | AID 2012 | Q15056 | hit rate 0.94% among 290,000;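 active = 50% or more with normal probe brightness, or confirmed in later tests; about a fifth of its hits are not listed in these tables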;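 note: calls also rest on retests at 20 µM and on dose response follow-up; 0% = protein and probe with vehicle and 100% = probe without protein; strong numbers were not always called active; many hits fall short of the cut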
UUG fidelity: modulators of start codon recognition fidelity in yeast | S. cerevisiae UUG-firefly luciferase reporter, luminescence/redox ratio | hit rate 0.13% among 350,000 | activity score, % at 18.7 µM | AID 602363;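 active = replicate mean at a twofold rise or more, about +100% in these data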;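 note: firefly luciferase made from a UUG start codon reports start codon fidelity; reporter light over untreated wells divided by growth signal over untreated wells; some hits fall short of that in this replicate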
PABP FP inh: blocks human PABP binding to poly(A) RNA; P11940; fluorescence polarization; inhibition, % at 35 µM; hit rate 1% among 290,000;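 active = 50% or more with normal probe brightness, or confirmed in later tests; about a fifth of its hits are not listed in these tables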;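 note: calls also rest on retests at 20 µM and on dose response follow-up; controls were probe without protein and protein plus probe with vehicle; some compounds called inactive have numbers as strong as hits; many hits fall short of the cut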
Target sequence (P11940 whole entry, looked up): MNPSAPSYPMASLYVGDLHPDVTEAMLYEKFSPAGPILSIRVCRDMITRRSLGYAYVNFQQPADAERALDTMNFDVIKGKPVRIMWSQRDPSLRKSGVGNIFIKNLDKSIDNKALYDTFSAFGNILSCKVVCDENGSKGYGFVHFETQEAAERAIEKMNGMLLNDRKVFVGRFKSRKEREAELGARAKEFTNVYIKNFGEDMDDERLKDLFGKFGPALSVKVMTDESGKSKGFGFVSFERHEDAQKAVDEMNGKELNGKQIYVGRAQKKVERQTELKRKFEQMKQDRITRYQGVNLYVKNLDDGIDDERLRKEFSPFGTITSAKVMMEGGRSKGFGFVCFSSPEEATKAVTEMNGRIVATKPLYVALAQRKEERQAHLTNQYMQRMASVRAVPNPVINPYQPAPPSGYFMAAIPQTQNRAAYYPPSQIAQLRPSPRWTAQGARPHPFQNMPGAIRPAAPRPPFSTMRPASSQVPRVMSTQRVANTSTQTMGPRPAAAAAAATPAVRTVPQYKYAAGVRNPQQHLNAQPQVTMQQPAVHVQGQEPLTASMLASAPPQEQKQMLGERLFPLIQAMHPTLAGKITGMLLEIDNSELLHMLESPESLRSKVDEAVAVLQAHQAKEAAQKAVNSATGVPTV
HIV Env fusion: inhibitors of HIV Env-mediated cell fusion | HeLa-JRFL Env/CEM21 cell fusion, luciferase | inhibition, % at 12.3 µM | hit rate 1.1% among 360,000;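 active = mean replicate inhibition score of at least 50 and every replicate individually at or above 50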;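 note: 0% = plate neutral controls and 100% = maraviroc near 300 nM; one replicate is shown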
CSC inhib: blocks cancer stem cells. cancer stem cell-like cells viability, luminescence. inhibition, % at 7.5 µM. hit rate 1.1% among 300,000;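 active = mean at 75% or more and at least half the replicates too; tested in HMLE shEcad cells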;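 note: 0% = median of negative and 100% = median of positive control wells; the first replicate is given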
eIF4H FP inh retest: second read-out of eIF4H FP inh, no call of its own (marks repeat the call); inhibition, %; compound at 20 µM; confirmation average;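 mean of two retest wells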
PABP FP inh retest: also measured in PABP FP inh; calls as there; inhibition, %; compound at 20 µM; confirmation repeats;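 mean of two retest wells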
MT1-MMP act inh RFP: further read-out of MT1-MMP act inh, marked with its call; RFP signal change, %; measured here: RFP expression control read;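 0 = vehicle wells; hits needed this value within 50% of zero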
Starred values were filed as active, the others as inactive; i = inactive; nt = not tested or not shown; & = joins results of further samples.

SMILES	Rce1 inh	MT1-MMP act inh	MT1-MMP act inh RFP	eIF4H FP inh	UUG fidelity	PABP FP inh	HIV Env fusion	CSC inhib	others
Nc1ncc(-c2ccc(-c3ccccc3)cc2F)cc1-c1ccccc1F	nt	2	1	nt	-3	nt	1	nt
CCn1c(SCC(=O)Nc2cc(C)on2)nnc1-c1cccc(C)c1	i	4	3	83	2	-5	8	-5	eIF4H FP inh retest=-1;PABP FP inh retest=13
CN(C)c1ccc(CN(C(=O)/C=C/c2ccco2)C2CCS(=O)(=O)C2)cc1 (stereo unspecified)	i	-2	3	1	-11	-6	-12	-1
Oc1ccc(C=Nc2ccccc2-c2nc3ccccc3[nH]2)cc1	i	1	-3	-10	nt	3	nt	nt
O=C1c2ccc(-c3ccc4c(c3)C(=O)N(CCCO)C4=O)cc2C(=O)N1CCCO	i	2	-3	4	-15	8	-3	-4
Cc1ccc(NC(=O)c2cncc(Br)c2)c(O)c1	i	-10	-8	2	nt	-1	29	-8
OC(c1ccccc1)(c1nc(-c2ccc(Cl)cc2)cs1)C(F)(F)F (stereo unspecified)	nt	0	3	nt	-9	nt	4	nt
Cc1noc(C)c1COC(=O)CCCc1c[nH]c2ccccc12	i	4	4	12	7	16	-76	nt
Cc1cc(C)c2nc(SCC#N)cc(C)c2c1	i	-4	-4	-4	-20	-8	nt	nt
Cc1cc(C)nc(N2CCC(C(=O)NCCc3ccccc3)CC2)n1	i	2	-2	-2	1	3	-113	-2
Cc1ccc(C)c2[nH]c(=O)c(CCNC(=O)CC(C)(C)C)cc12	i	2	1	0	-1	-10	5	-10
S=C(Nc1ccccc1)N1CCN(C(=S)Nc2ccccc2)CC1	i	nt	nt	-4	nt	0	2	9
O=C1COc2ccc(C(=O)COC(=O)c3ccccc3[N+](=O)[O-])cc2N1	i	-6	-1	nt	-21	nt	-73	nt
CCCS(=O)(=O)Nc1c(C(=O)O)[nH]c2ccc(OC)cc12	i	3	4	-5	-20	5	-3	-7
CCOC(=O)c1cc(-c2ccccc2)sc1NC(=O)CC	i	2	6	8	nt	-7	nt	7
Cc1onc(C(=O)Nc2sc3c(c2C(N)=O)CCCC3)c1[N+](=O)[O-]	i	0	3	-7	8	-5	-328	-8
COC(=O)c1ccccc1C(=O)N1CCCC(C(=O)c2ccc(OC)c(OC)c2)C1 (stereo unspecified)	i	0	4	1	-13	3	38	-6
COc1ccc([C@H]2C[C@H](O)[C@@H](n3cc(-c4ccc(F)cc4)nn3)CN2C(=O)c2cccs2)cc1	nt	2	1	nt	-22	nt	10	nt
C[C@@H]1CN([C@H](C)CO)C(=O)c2cc(NC(=O)Nc3ccc4c(c3)OCO4)ccc2O[C@H]1CN(C)Cc1ccncc1	nt	-4	-1	nt	-1&-20	nt	58*	-12
CN1C(=O)C2(c3ccccc31)c1c(oc3ccccc3c1=O)C(=O)N2CCO (stereo unspecified)	i	4	-3	-1	-16	-10	14	-9
Cn1cccc1C(=O)NC(=O)COC(=O)Cc1coc2ccc3ccccc3c12	i	6	3	29	nt	32	-43	5
CCOC(=O)NC(Cc1c[nH]c2ccccc12)C(=O)NCCc1ccc(S(N)(=O)=O)cc1 (stereo unspecified)	i	3	2	15	-2	10	3	-14
CCOc1cccc(N2C(=O)CC(NCc3ccc(S(N)(=O)=O)cc3)C2=O)c1 (stereo unspecified)	i	3	10	2	-1	-2	nt	5
Cc1cc(-c2ccc(C)c(S(=O)(=O)N3CCN(c4ccccn4)CC3)c2)on1	i	3	-11	-2	-11	-6	-6	-5
CCOc1ccc(N2Cc3ncccc3C2=O)cc1	i	-1	1	-2	-25	-10	-83	18
Cc1ccc(/C(N)=N/OC(=O)C(C)c2ccc([N+](=O)[O-])cc2)cc1 (stereo unspecified)	i	2	-5	-6	-6	-5	3	3
O=C(CCN1CCCCO1)N1CCCC(Nc2cccc(F)c2)C1 (stereo unspecified)	i	-2	2	-3	-9	-3	-8	-15
Cn1cnc([N+](=O)[O-])c1Sc1ncn[nH]1	i	0	4	-2	-12	-3	5	2
COc1ccc(C(=O)N/N=C/c2cc(Br)ccc2O)cc1OC	i	6	-5	22	nt	1	17	36
COc1ccc(OC)c(NC(=O)Cn2cc(C=O)c3ccccc32)c1	i	0	-4	-8	2	-13	5	-12
COc1cc2cc(C(c3nnnn3C(C)(C)C)N3CCc4ccccc4C3)c(=O)[nH]c2cc1OC (stereo unspecified)	i	-26	2	22	-10	46	-78	-5
Cc1ccc(C(=O)N2CCCC(Nc3ccc(C)c(C)c3)C2)c(=O)[nH]1 (stereo unspecified)	i	-1	2	-11	-2	-1	nt	34
Cc1ccc(N2C(=O)C3C(C2=O)N2C(c4cccs4)C4C(=O)N(c5ccc(C)cc5)C(=O)C4N2C3c2cccs2)cc1 (stereo unspecified)	i	-5	2	-5	0	8	16	-13
Cc1ccc(S(=O)(=O)Oc2ccc(/C=C(/NC(=O)c3ccccc3)C(=O)NCCCC(=O)O)cc2)cc1	i	-1	6	-8	nt	0	-5	-13
O=C(CSc1ccc2nnc(-c3ccccn3)n2n1)N1CCN(c2ccccc2)CC1	i	-2	0	0	-18	-2	16	-7
CC1CC1C(=O)OCC(=O)Nc1ccc(N=Nc2ccccc2)cc1 (stereo unspecified)	i	11	2	-1	nt	1	-31	2
CC(=O)Nn1cnc2c(c1=O)C1(CCCCC1)Cc1ccccc1-2	i	7	19	-3	nt	3	nt	-5
COc1ccc([N+](=O)[O-])cc1NS(=O)(=O)c1ccc(C(=O)N2CCCC2)cc1	nt	6	-2	nt	-5	nt	5	nt
CC(=O)NC(C)(c1ccccc1)c1nc(-c2cccc(C#N)c2)cs1 (stereo unspecified)	nt	-1	0	nt	-3	nt	-19	nt
Cc1ccc(-n2nnnc2SCC(=O)Nc2sc(C)c(C)c2C#N)cc1C	i	0	-1	-11	-18	-7	nt	1
COc1ccc(NC(=O)CN2CCC(Cc3ccccc3)CC2)cc1S(=O)(=O)N1CCOCC1	i	-5	-4	-5	-8	25	-2	0
COc1ccc(NS(=O)(=O)c2cc(NC(=O)c3cccc(OCc4c(C)noc4C)c3)ccc2OC)cc1	i	3	-6	-1	-2	-5	-11	32
CCCn1nc(NC(=O)COC)c2cc3cc(C)ccc3nc21	i	2	2	0	-2	37	nt	-1
Cc1c(Cl)cccc1NC(=O)CCN1CCCC(C)C1 (stereo unspecified)	i	-1	-2	7	-12	8	nt	-4
COc1ccc(NC(=O)c2ccc(NC(=O)COC(=O)CC(NC(=O)c3ccccc3Cl)c3ccccc3)cc2)cc1 (stereo unspecified)	i	3	2	-4	nt	-5	-21	7
CCOc1ccccc1NC(=O)c1ccc2c(O)c(S(=O)(=O)c3ccccc3)c(=O)[nH]c2c1	nt	0	2	nt	-9	nt	-22	nt
O=c1[nH]c2ccc(S(=O)(=O)N3CCN(c4ccccc4F)CC3)cc2s1	i	3	0	3	-9	2	15	-3
c1ccc(-c2noc(C34CC5CC(CC(C5)C3)C4)n2)cc1	i	0	1	7	-7	5	nt	45
CSc1ccccc1OCc1cc(C(=O)N2CCc3c(Cl)cccc3C2)no1	i	-4	0	2	-12	1	8	14
CCOc1ccc(N(C)C(=O)CCc2nnc3ccc(N4CCCCC4)nn23)cc1	i	-6	-2	-3	-14	8	4	-7
Next entries.
SMILES	Rce1 inh	MT1-MMP act inh	MT1-MMP act inh RFP	eIF4H FP inh	UUG fidelity	PABP FP inh	HIV Env fusion	CSC inhib	others
O=C(Cc1ccccc1Cl)NNC(=O)Nc1ccccc1	i	-6	-1	1	-10	4	-8	1
S=C(NCCc1ccccc1)NN=C1CCCCCC1	i	-2	3	14	nt	-4	-8	-6
Cc1ccc(NC(=O)c2cccc(NC(=O)/C=C/c3ccco3)c2)cc1C	i	3	2	-13	nt	-2	-19	39
Cc1ccc(S(=O)(=O)N(C)C)cc1NC(=O)COC(=O)COc1ccccc1[N+](=O)[O-]	i	0	3	-3	nt	5	13	-12
COc1ccc(NCCNc2ccc(OC)cc2)cc1	i	0	7	-2	-1	-5	-37	10
CCn1c(SCC(=O)Nc2nc(C)cs2)nnc1-c1ccco1	i	4	10	-5	-14	12	-3	-8
CC(=O)Nc1ccccc1C(=O)C(=O)Nc1ccc(F)cc1	i	-6	-2	-8	-1	-3	-46	nt
S=C(NCc1ccccc1Cl)Nc1ccccc1Cl	nt	-3	-2	-5	-33	-4	4	2
O=C(c1ccccc1)c1ccncc1	i	-2	5	-12	-34	-7	-45	-1
Cc1cc(=O)oc2c(C)c(OCC(=O)NCCCN3CCOCC3)ccc12	i	1	4	10	-26	6	-4	-5

Reprinted at random: 2 records from the list
SMILES	Rce1 inh	MT1-MMP act inh	MT1-MMP act inh RFP	eIF4H FP inh	UUG fidelity	PABP FP inh	HIV Env fusion	CSC inhib	others
CCCS(=O)(=O)Nc1c(C(=O)O)[nH]c2ccc(OC)cc12	i	3	4	-5	-20	5	-3	-7
c1ccc(-c2noc(C34CC5CC(CC(C5)C3)C4)n2)cc1	i	0	1	7	-7	5	nt	45

Additional structures
SMILES	Rce1 inh	MT1-MMP act inh	MT1-MMP act inh RFP	eIF4H FP inh	UUG fidelity	PABP FP inh	HIV Env fusion	CSC inhib	others
Cc1ccc(N(O)C(=O)OCCNC(=O)Nc2ccccc2)cc1	i	0	1	-9	-9	-8	nt	-13
COCc1c(C(=O)N2CCN(Cc3ccc(C#N)cc3)CC2)oc2ccccc12	i	-2	-6	-2	-12	-4	2	6
CCCCCCc1nnc(NC(=O)OCC)s1	i	2	0	-2	-17	-12	-85	-13
O=C(c1ccco1)N1CCN(c2ccc(Cl)cc2)CC1	i	0	0	14	-12	0	-58	7

Part of the list above in order of count of non-hydrogen atoms, lowest first.
SMILES	Rce1 inh	MT1-MMP act inh	MT1-MMP act inh RFP	eIF4H FP inh	UUG fidelity	PABP FP inh	HIV Env fusion	CSC inhib	others
O=C(c1ccccc1)c1ccncc1	i	-2	5	-12	-34	-7	-45	-1
CCCCCCc1nnc(NC(=O)OCC)s1	i	2	0	-2	-17	-12	-85	-13
S=C(NCc1ccccc1Cl)Nc1ccccc1Cl	nt	-3	-2	-5	-33	-4	4	2
S=C(NCCc1ccccc1)NN=C1CCCCCC1	i	-2	3	14	nt	-4	-8	-6
O=C(Cc1ccccc1Cl)NNC(=O)Nc1ccccc1	i	-6	-1	1	-10	4	-8	1
CC(=O)Nc1ccccc1C(=O)C(=O)Nc1ccc(F)cc1	i	-6	-2	-8	-1	-3	-46	nt
CCn1c(SCC(=O)Nc2nc(C)cs2)nnc1-c1ccco1	i	4	10	-5	-14	12	-3	-8
Cc1ccc(N(O)C(=O)OCCNC(=O)Nc2ccccc2)cc1	i	0	1	-9	-9	-8	nt	-13
O=c1[nH]c2ccc(S(=O)(=O)N3CCN(c4ccccc4F)CC3)cc2s1	i	3	0	3	-9	2	15	-3
Cc1ccc(NC(=O)c2cccc(NC(=O)/C=C/c3ccco3)c2)cc1C	i	3	2	-13	nt	-2	-19	39
CSc1ccccc1OCc1cc(C(=O)N2CCc3c(Cl)cccc3C2)no1	i	-4	0	2	-12	1	8	14
COCc1c(C(=O)N2CCN(Cc3ccc(C#N)cc3)CC2)oc2ccccc12	i	-2	-6	-2	-12	-4	2	6
CCOc1ccc(N(C)C(=O)CCc2nnc3ccc(N4CCCCC4)nn23)cc1	i	-6	-2	-3	-14	8	4	-7
Cc1ccc(S(=O)(=O)N(C)C)cc1NC(=O)COC(=O)COc1ccccc1[N+](=O)[O-]	i	0	3	-3	nt	5	13	-12
CCOc1ccccc1NC(=O)c1ccc2c(O)c(S(=O)(=O)c3ccccc3)c(=O)[nH]c2c1	nt	0	2	nt	-9	nt	-22	nt

A portion of the library. The share of hits here may be higher or lower than overall.
